Ecoli growth = inhibitors of Escherichia coli growth. OD600, 23 h; active compounds read low. 330,000 compounds, 0.21% hits. OD600 absorbance (test concentration not listed);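 active = OD600 absorbance below the run mean of sample wells minus 3.6 SD, in any replicate, cut at about 0.56 in these data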;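 also: stock transfer was 300 nL into about 60 µL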
AF4-AF9 inh = blocks AF4 peptide binding to human AF9; inhibition, % at 10 µM; P42568; AlphaScreen, biotin-AF4 peptide binding to FLAG-AF9; 350,000 compounds, 0.47% hits;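 active = every replicate reaching a set inhibition limit, whatever the replicate mean, cut at about 25% in these data; inconclusive = mean inhibition reaches that limit but some replicates miss it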;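 also: 0% = plate neutral control median and 100% = total signal loss; the record names both 10 and 1 µM as test concentration; the first replicate is given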
UCH37 inh = inhibitors of human deubiquitinating enzyme UCH37. Q9Y5K5. purified proteasome/UCH37, Ub-AMC cleavage fluorescence. inhibition, % (no concentration beside the values). 330,000 compounds, 0.33% hits;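 active = mean of two replicates above 20%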;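 also: 0% = compound-free wells with enzyme and 100% = wells lacking proteasome; stock transfer was 100 nL into about 20 µL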
Target sequence (Q9Y5K5 whole entry, looked up): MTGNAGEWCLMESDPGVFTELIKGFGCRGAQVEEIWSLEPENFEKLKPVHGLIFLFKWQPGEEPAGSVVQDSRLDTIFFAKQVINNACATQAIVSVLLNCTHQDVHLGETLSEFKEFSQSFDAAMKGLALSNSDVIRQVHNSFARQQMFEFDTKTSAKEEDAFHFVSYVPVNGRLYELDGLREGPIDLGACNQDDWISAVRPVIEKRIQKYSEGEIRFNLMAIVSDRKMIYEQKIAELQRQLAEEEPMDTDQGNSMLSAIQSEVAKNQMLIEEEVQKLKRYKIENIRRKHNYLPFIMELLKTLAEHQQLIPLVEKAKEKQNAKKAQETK
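Reagent: Ub-AMC substrate; assay system: Proteasome-associated human UCH37 deubiquitinase; controls: no-proteasome and no-compound wells; read-out: % inhibition of Ub-AMC cleavage fluorescence; timing: 30 min preincubation with enzyme, 25 min cleavage at room temperature; signal: AMC fluorescence from Ub-AMC cleavage, excitation 355 nm, emission 460 nm; buffer or medium: Tris-HCl pH 7.4 plus ovalbumin, ATP-MgCl2, DTT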
Vif TR-FRET = HIV-1 Vif–A3G interaction blockers – biochemical, TR-FRET, GST-Vif 1-94, biotin-A3G peptide, dose response retest, primary screen (AID 1117319) | TR-FRET GST-Vif / biotin-A3G peptide binding; higher % means a stronger effect; test concentration not given here; strong numbers were not always called active | one-dose inhibition, %; IC50 in µM for titrated hits | 260,000 compounds, 0.57% hits;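 active = above the screen mean plus three standard deviations and confirmed in dose response; inconclusive = results disagree or hit not tested in dose response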;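 also: Vif residues 1-94 fused to GST binding biotinylated APOBEC3G peptide 110-148; 0% = full assay without inhibitor and 100% = GST in place of GST-Vif; retest series ran down from 100 µM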
FGF22 binding = binders of recombinant human FGF22 by thermal shift. Q9HCT0. SYPRO orange fluorescence; percent of sucrose octasulfate shift, DMSO zero. calls only at 9.99 µM. 340,000 compounds, 1.5% hits;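 active = melting point raised past a set limit in the mean and every replicate; inconclusive = no clear call; three in four hits are not shown here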
Target sequence (Q9HCT0 whole entry, looked up): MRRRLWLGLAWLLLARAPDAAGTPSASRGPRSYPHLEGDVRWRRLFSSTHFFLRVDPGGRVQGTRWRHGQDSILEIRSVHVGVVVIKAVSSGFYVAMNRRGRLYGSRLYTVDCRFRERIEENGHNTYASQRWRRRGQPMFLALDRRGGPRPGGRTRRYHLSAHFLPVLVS
HNF4A DNA FP = change in binding of human HNF4 alpha to DNA. HNF4a-FITC DNA binding, fluorescence polarization, 1 h. P41235. activity change, % at 10 µM. AID 1224865. 360,000 compounds, 0.3% hits; in the data active = activity change above about 30%, passing the limit was not always enough;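 also: controls were the assay level and a saturating level of protein; the project sought stronger binding though the title names inhibitors; some compounds called inactive have numbers as strong as hits; positive values seem to mean higher polarization but the record does not say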
Target sequence (P41235 whole entry, looked up): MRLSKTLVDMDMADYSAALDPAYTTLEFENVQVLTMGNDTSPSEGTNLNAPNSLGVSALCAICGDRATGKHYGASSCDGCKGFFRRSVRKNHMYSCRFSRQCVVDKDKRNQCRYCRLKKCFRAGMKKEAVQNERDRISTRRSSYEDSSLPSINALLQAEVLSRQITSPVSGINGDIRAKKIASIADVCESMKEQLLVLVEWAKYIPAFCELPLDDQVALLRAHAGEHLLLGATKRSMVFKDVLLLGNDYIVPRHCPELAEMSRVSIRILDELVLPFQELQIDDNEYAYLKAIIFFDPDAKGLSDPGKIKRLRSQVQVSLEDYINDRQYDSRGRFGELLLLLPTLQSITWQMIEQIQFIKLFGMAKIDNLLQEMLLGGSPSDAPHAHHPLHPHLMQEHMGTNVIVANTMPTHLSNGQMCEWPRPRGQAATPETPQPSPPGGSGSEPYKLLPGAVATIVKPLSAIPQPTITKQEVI
RanGTP-Imp inh = disruptors of Ran-importin-beta complex formation – biochemical, FRET, CFP-Ran, YFP-importin-beta, homogeneous, primary screen; cell-free CFP-Ran/YFP-importin-beta FRET ratio; inhibition, % (concentration not given with the values); 300,000 compounds, 1.1% hits; AID 2216;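 active = most replicates above 15%; inconclusive = exactly half above 15%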;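 also: 0% = DMSO wells and 100% = Ran loaded with GDP instead of GTP; wells of about 40 µL received 100 nL stock; the first replicate is given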
Active calls of the source: *; i = inactive; ? = inconclusive; / = not tested or not shown; & = joins results of further samples. The list is partial. The share of hits here may be higher or lower than overall.

SMILES	Ecoli growth	AF4-AF9 inh	UCH37 inh	Vif TR-FRET	FGF22 binding	HNF4A DNA FP	RanGTP-Imp inh
O=C(/C=C/c1ccc([N+](=O)[O-])cc1)c1ccccc(=O)c1O	/	12	/	28%	i	-1.4	/
CC(C)(C)n1nc2c(c1NC(=O)C1CC(=O)N(c3ccc(Cl)cc3)C1)CS(=O)(=O)C2 (stereo not given)	0.7	-1.7	-0.2	0%	i	-0.6	1.2
CCCn1c(=O)c(C(=O)NNC(=O)c2ccccc2[N+](=O)[O-])c(O)c2ccccc21	/	-1.7	/	3%	i	-3.0	0.6
COc1ccc(C)cc1NC(=O)CNC(=O)Cn1ccc2ccccc2c1=O	0.69	/	-0.6	?	/	4.5	-0.5
COc1ccc(-c2cc(C(F)(F)F)n3nc(C(=O)O)nc3n2)cc1	0.68	/	-89	-3%	/	3.0	-2.8
CC/C(=N/NC(=O)c1ccccc1O)c1c(C)[nH]n(-c2ccccc2)c1=O	/	-2.4	/	/	i	-0.3	?
Cc1cc(=O)[nH]c(SCC(=O)Nc2ccc(Cl)cn2)n1	0.66	/	1.2	-3%	/	-0.1	3.2
CCN(CC(=O)Nc1ccc(NC(C)=O)cc1)C(=O)c1sc2nc3n(c(=O)c2c1C)CCC3	0.7	0.4	0.3	-9%	i	-1.0	/
CCCCc1nnc(NC(=O)CCS(=O)(=O)c2ccc(C)cc2)s1	0.68	-4.6	2.4	0%	i	1.5	/
O=[N+]([O-])c1cccc(-c2csc(Nc3ccccc3)n2)c1	0.72	14	7.2	-6%	i	-2.8	/
Oc1c(CN2CCc3ccccc3C2)cc(Cl)c2cccnc12	0.43*	/	3.7	30%	/	-1.6	23*
COc1ccc(CN2CCCC(C(=O)N3CCCCC3)C2)c(OC)c1 (stereo not given)	0.65	/	4.8	8%	/	-1.3	2.3
CCOC(=O)C1=C(C)N(C)C(C)=C(C(=O)OCC)C1c1ccccn1	0.71	/	4.0	3%	/	0.9	-2.4
COc1ccc2[nH]c(=S)cc(C)c2c1	0.67	-5.6	-2.0	1%	i	-0.5	0.6
O=C(O)c1ccccc1C(=O)Nc1ccc(S(=O)(=O)Nc2nccs2)cc1	0.62	?	2.1	/	i	-0.6	/
COc1cccc(CNC(=O)CCc2nnc(C3CCCCC3)o2)c1	0.72	2.3	2.2	15%	/	-5.5	-1.0
NC(=O)C1CCN(c2ccnc3cc(Cl)ccc23)CC1	0.65	0.1	8.4	-2%	i	5.9	8.6
NC(=O)c1nnsc1-c1ccco1	0.66	-9.7	8.0	11%	i	2.3	/
CC(=O)C1=C(O)C(CSCc2ccccc2)N(C)C1=O (stereo not given)	/	1.0	/	8%	i	-1.9	/
O=C(Cn1nnc(-c2ccccc2NC(=O)c2cccs2)n1)Nc1ccccc1	0.71	/	-9.0	5%	/	0.5	-0.4
COc1ccc(N2C3=C(C(=O)CC(C)(C)C3)C(c3ccccc3OC)C3=C2CC(C)(C)CC3=O)cc1	0.71	-0.2	-304	13%	/	-1.6	149*
COc1ccc(CCNC(=O)c2coc3ccccc3c2=O)cc1	0.69	-7.2	1.9	/	i	0.0	6.7
CCOC(=O)c1ccc(NC(=O)c2sc3nc4n(c(=O)c3c2C)CCC4)cc1	0.6	-9.3	-23	/	i	-5.7	2.7
CC(C)CCNC(=O)[C@H](Cc1ccccc1)N1Cc2ccccc2C1=O	0.68	-1.3	5.9	24%	i	-1.2	-0.8
CC(NC(=O)c1ccco1)C(=O)N1CCc2ccccc2C1 (stereo not given)	0.67	/	4.9	64%	/	3.1	2.5
Clc1ccc(SCc2cc(N3CCOCC3)nc(-c3ccccn3)n2)cc1	0.65	9.8	0.3	/	i	1.0	-1.7
CCN1C(=O)CSC1=Nc1cccc(C(=O)O)c1	0.66	-0.8	0.9	0%	i	2.0	1.0
COc1ccc(/C=N/N2CCN(c3ccc(Cl)cc3)CC2)cc1O	/	-3.5	/	/	i	0.2	6.8
O=C(c1ccc(Br)o1)N1CCN(C/C=C/c2ccccc2)CC1	0.71	/	3.9	2%	/	-1.4	-2.8
Cc1cc(N(C)N)nc(NC(=O)NS(=O)(=O)c2ccccc2Cl)n1	/	-1.5	/	-11%	i	3.4	-1.3
CC(C)(C)c1ccc(C(=O)NC(=S)N2CCOCC2)cc1	0.71	1.2	0.4	-5%	i	-1.5	-0.5
Cc1ccc(S(=O)(=O)N2CCOCC2)cc1C(=O)NC1CCCC(C)C1C (stereo not given)	0.62	6.5	1.0	5%	i	3.9	4.9
COc1ccc(OC)c(NC(=O)Cn2c(CCC(=O)O)ccc2-c2ccc(C)cc2)c1	0.67	-0.2	2.4	28%	i	-1.6	0.3
Cc1cc(C)c(NC(=O)CN(C)S(=O)(=O)c2ccc3c(c2)n(C)c(=O)c(=O)n3C)c(C)c1	0.65	-4.2	-6.7	/	i	-3.0	-4.0
COc1ccc(S(=O)(=O)Nc2cc3c(C(C)=O)c(C)oc3c3ccccc23)cc1	0.71	/	0.1	-7%	/	1.2	0.7
Cc1ccc(C2C(C#N)=C(N)Oc3n[nH]c(C)c32)cc1 (stereo not given)	0.73	/	3.4	?	/	1.7	3.5
Cc1ccc(CNC(=O)CS(=O)(=O)CC(=O)O)cc1	0.74	/	-2.5	-4%	/	2.3	3.8
O=C(CSc1nnnn1-c1ccccc1)N1N=CCC1c1ccccc1 (stereo not given)	0.71	/	5.3	14%	/	-0.1	2.0
Cc1[nH]nc2c1C1(CCOC1C)C(C#N)=C(N)O2 (stereo not given)	0.66	/	3.9	6%	/	-5.0	-2.2
Cc1cc(N2CCCCCC2)nc2ccc(F)cc12	0.64	/	-56	/	/	-3.3	1.1
CCS(=O)(=O)N1CCN(C(C)CCc2ccccc2)CC1 (stereo not given)	0.69	/	-0.9	-5%	/	0.3	-0.2
Cn1c(COc2ccc(F)cc2)nnc1SCC(=O)NC1CC1	0.7	-1.0	2.4	-6%	i	-0.6	4.8
CSCCC1NC(=O)N(CC(=O)Nc2cc(C)on2)C1=O (stereo not given)	0.7	5.6	2.1	-3%	i	1.1	/
N#CC(C(O)c1ccccc1)N1CCOCC1 (stereo not given)	/	-0.6	/	-12%	i	2.3	/
CCCn1c(SCC(=O)NC2CCCC2)nnc1C(C)C	0.68	-2.4	3.4	/	i	2.9	1.0
COc1ccc(Cl)cc1NC(=O)C(C)N(C)Cc1ccc(C(F)(F)F)cc1 (stereo not given)	0.74	-4.6	-2.1	-12%	i	-1.3	-1.9
O=C(Cc1cccs1)Nc1cc(SCCO)cc([N+](=O)[O-])c1	0.72	/	-0.1	?	/	5.3	-0.6
O=C(O)COc1ccc(Br)cc1/C=C1/SC(=O)N(CC(=O)N2CCCC2)C1=O	0.74	/	3.0	-6%	/	2.8	3.8
Cc1ccc(S(=O)(=O)C2C(=O)N(C)C3(C)CC2c2ccccc2O3)cc1 (stereo not given)	0.72	-9.7	6.1	/	i	1.8	2.8
Cc1nc2ccccc2nc(C)c1=NOCc1ccc(C#N)cc1	0.72	/	1.4	2%	/	3.5	0.0
Cc1ccc(/C=C2\SC(=O)N(CCC(=O)N3CCN(C)CC3)C2=O)cc1	0.66	2.7	11	0%	i	-0.6	2.6
O=C(CCc1ccc(S(=O)(=O)N2CCOCC2)cc1)Nc1c(F)cccc1F	0.72	5.0	0.9	/	i	1.3	/
Cc1ccc(OCC(=O)Nc2ccccc2C(=O)N2CCCC2)cc1	0.72	0.9	3.5	/	i	-1.1	-0.7
COCOc1ccc(/C=C/C(=O)c2c(OCOC)cc(OCOC)c(CC=C(C)C)c2O)cc1OCOC	0.78	/	7.4	/	/	1.2	-4.6
CSc1nc2c(c(=O)n1C)SC(C)C2 (stereo not given)	0.7	-9.7	2.6	?	i	-3.0	-1.4
O=C1c2ccccc2-c2cccc(NS(=O)(=O)c3ccc(C(F)(F)F)cc3)c21	0.7	/	2.7	5%	/	18	0.4
Cc1onc(-c2ccccc2Cl)c1C(=O)NC(=S)NCc1cccnc1	0.71	5.1	6.1	/	i	-0.9	-1.6
CCOC(=O)c1ccc(N2C(=O)c3n[nH]c(C)c3C2c2ccc(OC)cc2)cc1 (stereo not given)	0.67	/	0.8	4%	/	0.3	-1.1
COc1ccccc1OCCN(C#N)c1nc(N(C)C)nc(N(C)C)n1	0.58	-0.5	1.1	/	i	1.4	2.3
N/C(=N\OC(=O)Oc1ccccc1)c1ccc([N+](=O)[O-])cc1	/	/	/	6%	/	-3.6	0.4
Next entries:
SMILES	Ecoli growth	AF4-AF9 inh	UCH37 inh	Vif TR-FRET	FGF22 binding	HNF4A DNA FP	RanGTP-Imp inh
Cc1cccc(C)c1NC(=O)c1sccc1SCc1cccc(C(F)(F)F)c1	0.7	2.8	3.8	-1%	i	-2.2	2.8
COc1ccc(C)cc1NC(=O)Nc1ccccc1	0.75	/	1.6	23%	/	-1.6	24
CCOc1cc(/C=C2/C(=N)N3OC(C)=CC3=NC2=O)ccc1OC	0.71	-2.7	9.9	/	i	2.0	4.9
COCCNCc1ccc(Cl)cc1Cl	0.68	-3.1	2.5	0%	i	-1.4	6.5
CC1=C(C(=O)OCc2ccccc2)C(c2ccccc2[N+](=O)[O-])NC(=O)N1C (stereo not given)	0.7	1.3	0.9	0%	i	0.6	-3.6
CC1(C)Cc2nc3[nH]c(=S)n(-c4ccccc4)c(=O)c3cc2CO1	0.73	/	4.7	3%	/	-0.8	/
CCCN(CC(=O)Nc1cc(C)on1)S(=O)(=O)c1cccc(C(F)(F)F)c1	0.67	1.5	3.6	9%	i	4.6	2.1
Cc1ccc(NC(=O)CSc2nc(N)cc(=O)[nH]2)cc1Cl	0.65	-0.1	5.0	0%	i	-0.2	2.2
CCN(CC)C(=O)c1ccc(-c2nnc(Nc3ccc(C(=O)NC)cc3)c3ccccc23)cc1	0.7	-5.1	3.0	6%	i	1.1	3.4
CCC(c1nnc(SCC(=O)Nc2ccc(C(=O)Nc3ccccc3OC)cc2)o1)N(C)C (stereo not given)	0.78	/	6.8	-12%&-1%	/	-0.6	0.6
Cc1nc2c(c3c1[nH]c1ccccc13)C(=O)CC(C)(C)C2	0.71	-11	-7.8	14%	/	1.9	-3.0
CCc1cc(=O)oc2cc(C)cc(OC(C)C(=O)NCc3ccccn3)c12 (stereo not given)	0.68	-0.1	-109	/	i	-0.1	2.5
O=C1c2ccccc2C(=O)N1CCCCNc1ccccc1	0.67	1.9	0.9	-1%	i	-3.1	/
N#Cc1ccccc1NC(=O)CN1CCOCC1	0.71	-3.5	2.3	/	i	2.9	?
